PKD1 inh: inhibitors of human PKD1 kinase, biochemical, fluorescence polarization. hit rate 0.056% among 200,000. AID 797, 2007. PKD1 kinase fluorescence polarization assay. inhibition, %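 (about 10 µM by stock and volumes)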. Serine/threonine-protein kinase D1 (Homo sapiens), Q15139;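 active = inhibition of 50% or more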;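 also: controls were vehicle for no effect and a reference inhibitor for full effect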
INS promoter inh: inhibitors of insulin promoter-driven GFP, primary screen, imaging, TRM-6 cells (human fetal islet line), eGFP reporter, cell count | hit rate 0.9% among 130,000 | reporter expression induced with tamoxifen | inhibition, % at 2 µM;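 active = inhibition above the mean plus 3 SD, with well images judged a real hit on visual review, cut at about 60% in these data, passing the limit was not always enough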
RGS16-Gao HTS: modulators of RGS16 binding to Galphao, primary screen, biochemical, human proteins, multiplexed bead flow cytometry; Regulator of G-protein signaling 16 (Homo sapiens) + Guanine nucleotide-binding protein …; bead-based flow cytometry RGS16-Galphao binding, fluorescence; actives lie on both sides; binding response (% of control), % at 10 µM; hit rate 0.38% among 220,000; AID 1441, 2008;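 active = below 25% or above 175%, edge rows of some plates excepted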;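 also: Galphao activated by GDP with aluminum fluoride before binding; 100% = wells without compound and 0% = beads without RGS; some results beyond the cut were filed as inactive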
Target sequence (O15492 whole entry, looked up): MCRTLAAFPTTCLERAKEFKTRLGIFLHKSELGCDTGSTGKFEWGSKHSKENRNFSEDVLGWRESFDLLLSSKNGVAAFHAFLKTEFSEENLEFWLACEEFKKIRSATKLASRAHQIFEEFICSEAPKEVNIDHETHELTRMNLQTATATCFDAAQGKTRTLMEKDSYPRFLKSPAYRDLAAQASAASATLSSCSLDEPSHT
Target sequence (P09471 whole entry, looked up): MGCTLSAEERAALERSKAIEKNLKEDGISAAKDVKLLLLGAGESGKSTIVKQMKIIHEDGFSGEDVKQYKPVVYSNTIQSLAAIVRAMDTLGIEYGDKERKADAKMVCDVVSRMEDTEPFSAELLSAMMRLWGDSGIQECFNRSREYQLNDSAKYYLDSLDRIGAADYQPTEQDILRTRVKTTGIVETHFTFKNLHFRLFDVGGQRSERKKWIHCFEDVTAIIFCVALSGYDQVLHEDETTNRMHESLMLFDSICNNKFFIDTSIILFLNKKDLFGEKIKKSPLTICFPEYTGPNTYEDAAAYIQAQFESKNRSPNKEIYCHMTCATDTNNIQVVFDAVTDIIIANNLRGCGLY
GALR2 agonist: GALR2 receptor agonists, primary screen, cell-based | Galanin receptor type 2 (Homo sapiens), O43603 | activation, %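 (tested at 5 µM)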 | hit rate 0.48% among 140,000 | GALR2-expressing cells, agonist activation read-out;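 active = above mean plus 3 SD of all compounds, about 5% in these data, not always enough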;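 also: 0% = vehicle buffer wells and 100% = reference agonist at full effect; tested in CHO reporter cells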
Target sequence (O43603 whole entry, looked up): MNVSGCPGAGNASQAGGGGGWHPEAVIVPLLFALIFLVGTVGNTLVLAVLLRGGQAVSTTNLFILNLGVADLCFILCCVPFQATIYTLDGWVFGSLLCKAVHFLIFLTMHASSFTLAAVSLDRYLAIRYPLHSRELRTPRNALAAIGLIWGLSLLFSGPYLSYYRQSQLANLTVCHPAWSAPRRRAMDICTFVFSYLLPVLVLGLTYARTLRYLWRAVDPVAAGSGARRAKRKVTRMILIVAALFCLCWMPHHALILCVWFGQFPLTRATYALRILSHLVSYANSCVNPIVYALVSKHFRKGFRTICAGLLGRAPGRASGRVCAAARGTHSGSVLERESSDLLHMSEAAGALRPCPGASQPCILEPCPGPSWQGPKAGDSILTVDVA
HSV replic up: enhancers of HSV replication in host cells, fold increase, host cell viability | HSV replication augmentation in cells | maximum fold increase | hit rate 0.005% among 220,000 | AID 1956, 2009;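 active = peak rise of 1.5-fold or more in the series; tested in PC3 cells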;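 also: first round at 10 µM; read as green reporter fluorescence; hits show the peak of a series up to 25 µM; 1 = signal of infected wells without compound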
INS promoter inh cell count: also measured in INS promoter inh; calls as there; normalized cell count, %; measured here: cell count, toxicity; reference of the scale not given here;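 cells exposed to compound for 48 h; stained nuclei by imaging scaled within each plate; lower means fewer cells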
HSV replic up primary fold: second read-out of HSV replic up, no call of its own (marks repeat the call); fold increase; compound at 10 µM; measured here: primary screen fold increase 10 uM; tested in PC3 cells;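 GFP signal in the first replicate; 1 = infected wells without compound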
The depositor's hits bear a star; i = inactive; / = no result given.

SMILES	PKD1 inh	INS promoter inh	INS promoter inh cell count	RGS16-Gao HTS	GALR2 agonist	HSV replic up	HSV replic up primary fold
Cc1cccc(-n2c(SCN3C(=O)c4ccccc4C3=O)nc3ccccc3c2=O)c1	1	/	/	103	3.2	i	1.1
COC(=O)c1[nH]c(=O)c2ccccc2c1OCc1ccccc1	-12	-64	97	104	-1.9	i	0.92
O=C(N/N=C/c1ccc[nH]1)c1cccc([N+](=O)[O-])c1	6	-280	93	106	-0.8	i	0.89
O=C(COc1cc(Cl)c(Cl)cc1Cl)NCCN1CCOCC1	-9	49	141	101	-2.5	i	0.97
COc1ccc(OC)c(NC(=O)CN(C)S(=O)(=O)c2ccc3nc(C)sc3c2)c1	-1	0	75	66	-0.9	i	0.99
Cc1cccc(C)c1Nc1nnc(SC(C)C(=O)Nc2c(C)n(C)n(-c3ccccc3)c2=O)s1 (stereo unspecified)	0	-29	100	98	-0.4	i	1
CCOC(=O)C1CCCCN1Cc1ccccc1C(F)(F)F (stereo unspecified)	4	-91	103	105	-0.8	i	0.98
OCCC1CN(Cc2ccc3nonc3c2)CCN1Cc1ccsc1 (stereo unspecified)	-7	/	/	103	/	i	1.2
Cc1ccc(C(=O)n2c(-c3ccccc3)cnc2SCC(=O)Nc2ccc(C)cc2C)cc1	-6	-26	115	101	-1.2	i	0.94
Oc1ccc(COCc2ccccc2)c2cccnc12	7	/	/	87	-1.6	i	0.76
CCOC(=O)CC1C(=O)NCCN1S(=O)(=O)c1ccc(Cl)c(Cl)c1 (stereo unspecified)	2	40	81	95	2.8	i	0.88
CC(NC(=O)CCc1nnc(-c2ccccc2)o1)c1ccccc1 (stereo unspecified)	-3	17	167	105	/	i	0.98
Cc1ccc(OCC(=O)NC2=NCCS2)cc1	-8	-30	195	105	-3.7	i	0.97
CCOC(=O)CSc1nc2cc(S(=O)(=O)Nc3ccccc3OC)ccc2o1	-5	27	113	106	-1.0	i	0.91
CC(C)(O)C#Cc1ccc(C(=O)NCCC(=O)O)s1	-3	/	/	102	/	i	0.89
CCC(C)(C)n1nnnc1C(c1ccccn1)N1CCCCC1 (stereo unspecified)	-7	-322	76	54	-2.5	i	1.1
O=C1CC(N(O)c2ccccc2)C(=O)N1c1ccc(Cl)c(Cl)c1 (stereo unspecified)	/	/	/	102	/	i	0.9
Cc1ccc(-c2nc(-c3ccccn3)no2)cc1	-6	/	/	97	0.3	i	0.87
CCOC(=O)N1CCC(NC(=O)C2CCN(S(=O)(=O)N3CCC(C)CC3)CC2)CC1	-12	/	/	99	-3.4	i	0.92
CCCNC(=O)Cn1cnc([N+](=O)[O-])n1	3	8	89	112	-1.0	i	0.92
CCC(Sc1nc2n[nH]c(C)c2c(=N)n1-c1cc(Cl)ccc1C)C(=O)N1CCOCC1 (stereo unspecified)	-2	/	/	101	0.6	i	1
COc1cccc(N/N=C/c2cccc(Br)c2O)c1	/	/	/	98	/	i	1.1
Cc1ccc(C)c(SCC(=O)Nc2ccc(S(=O)(=O)Nc3ncccn3)cc2)c1	/	/	/	74	/	i	0.91
O=C(COC(=O)c1cccc(Cl)c1)NCCN1C(=O)CSC1=O	3	-20	85	84	-0.9	i	0.95
CC(C)(C)c1ccc(C(=O)Nc2ccccc2NC(=O)c2ccco2)cc1	-1	-150	98	100	-1.1	i	0.76
Cc1ccc(OCC(=O)N2CCN(S(C)(=O)=O)CC2)cc1	/	/	/	96	/	i	0.96
O=C(Cn1nnc2ccccc21)NC1CCCCC1	-6	/	/	100	0.0	i	0.74
CC(C)C(NS(=O)(=O)c1ccc2c(c1)oc(=O)n2C)C(=O)N1CCN(c2ccccc2F)CC1 (stereo unspecified)	-6	/	/	102	/	i	0.96
O=C(N/N=C/c1ccncc1)C1CC1C(=O)N/N=C/c1ccncc1 (stereo unspecified)	1	-8	108	107	-2.0	i	0.99
O=C(COc1ccc(F)cc1)OCCN1CCOCC1	-1	8	104	100	-1.1	i	1.1
COc1ccc(CCNC(=O)c2c[nH]c3ccccc3c2=O)cc1OC	-4	/	/	101	-0.8	i	0.89
CCc1cccc(CC)c1NC(=O)COC(=O)CC1c2ccccc2CCN1S(=O)(=O)c1ccc(F)cc1 (stereo unspecified)	-11	-24	71	101	0.0	i	1.1
Cc1ccc(C2=N/C(=C/c3cccs3)C(=O)N2Nc2ccccc2)cc1	-6	/	/	100	-2.3	i	0.87
CCn1cc(S(=O)(=O)CC(=O)N2CCc3ccccc32)c2ccccc21	/	/	/	103	/	i	0.92
CC(C)CCNC(=O)CN(CCCN1CCOCC1)C(=O)Cn1nnc(-c2ccc(F)cc2)n1	11	-79	61	98	-0.8	i	1.1
CCOC(=O)C1CCN(C(=O)COC(=O)c2ccc3c(c2)C(=O)N(c2ccc(OCC)cc2)C3=O)CC1	-4	-50	54	106	/	i	0.94
COC(=O)N/N=C/c1ccccc1	3	/	/	101	/	i	0.99
CC(C)(C)c1ccc(NC(=O)Nc2ccc3ccccc3n2)cc1	/	/	/	96	/	i	0.89
COC(=O)c1nnc(-c2ccccc2)c(-c2ccccc2)n1	-7	16	147	24	-1.0	i	1.1
COCCCNc1ncnc2sc3c(c12)CCC(C)C3 (stereo unspecified)	1	/	/	98	-0.1	i	0.93
O=C1NC(=O)C2(COC(c3cccnc3)OC2)S1 (stereo unspecified)	-5	23	128	100	0.9	i	0.9
COc1cccc(/C=N/NC(=O)c2csc(-n3nc(C)cc3C(F)(F)F)n2)c1	-13	32	77	93	0.0	i	1.1
Cc1ccc(NC(=O)NNC(=O)c2sccc2-n2cccc2)cc1	-2	40	73	82	/	i	0.88
C[C@]1(C(=O)O)Cc2oncc2C[C@@H]1C(=O)O	-10	11	115	84	-0.6	i	0.95
COC(=O)c1c(NC(=O)CN2CCN(C(=O)c3ccco3)CC2)c2c(C)cccc2n1C	-2	/	/	144	0.7	i	0.96
CCOC(=O)C(=CN(CCc1ccccc1)CC(=O)OC)C(=O)OCC	1	35	123	105	-1.2	i	0.75
COC(=O)[C@@H](NC(=O)NC1CCCc2ccccc21)C(C)C (stereo partly specified)	-9	42	119	101	-0.9	i	0.67
CC(=O)NC(C(=O)OCC(=O)N(c1ccccc1)c1ccccc1)C(C)C (stereo unspecified)	/	/	/	96	/	i	0.89
Cc1cc(C)c2c(n1)sc1c(=O)n(CC(=O)c3ccccc3)cnc12	/	/	/	92	/	i	0.81
CCOC(=O)c1[nH]c(C(=O)O)c(CCC(=O)OC)c1C	-7	0	83	114	-1.8	i	0.91
CCCc1nnc(NC(=O)c2cccs2)s1	-3	16	158	100	-0.8	i	0.98
Nc1ccc(C(=O)O)cc1S(=O)(=O)O	/	/	/	107	/	i	0.92
COc1cc(NC(=O)c2cccs2)c(OC)cc1NC(=O)c1ccco1	-3	0	105	107	-1.6	i	1.1
COC(=O)c1ccccc1NC(=O)c1cn(-c2ccc(C)c(C)c2)c(=O)c2ccccc12	-4	3	123	98	-1.2	i	0.87
O=C(Nc1ccccc1)Nc1nnc(-c2cccs2)s1	5	/	/	103	1.5	i	1.1
CCOC(=O)N1CCN(C(=O)c2ccc(C#CC3(O)CCCCC3)cc2)CC1	-13	-11	72	96	0.3	/	/
Cc1cccc(C(C)C)c1NC(=O)CN(C)Cc1cccc(F)c1	-6	-30	50	130	-1.8	i	1.1
CC(=O)Nc1ccccc1C(=O)C(=O)Nc1cccc(C(=O)NC2CC2)c1	-1	-50	109	106	-1.0	i	1.1
O=C(COC(=O)c1ccc(CNS(=O)(=O)c2ccc(F)c(Cl)c2)cc1)NC1CCCCCCC1	0	/	/	105	0.3	i	1.1
CCCCSc1nc(O)c(Cc2ccccc2)c(=O)[nH]1	1	0	53	102	0.4	i	1

Another view of some results above:
smiles: COC(=O)c1ccccc1NC(=O)c1cn(-c2ccc(C)c(C)c2)c(=O)c2ccccc12
  PKD1 inh: -4
  INS promoter inh: 3
  INS promoter inh cell count: 123
  RGS16-Gao HTS: 98
  GALR2 agonist: -1.2
  HSV replic up: i
  HSV replic up primary fold: 0.87
smiles: CCOC(=O)c1[nH]c(C(=O)O)c(CCC(=O)OC)c1C
  PKD1 inh: -7
  INS promoter inh: 0
  INS promoter inh cell count: 83
  RGS16-Gao HTS: 114
  GALR2 agonist: -1.8
  HSV replic up: i
  HSV replic up primary fold: 0.91
smiles: COC(=O)c1c(NC(=O)CN2CCN(C(=O)c3ccco3)CC2)c2c(C)cccc2n1C
  PKD1 inh: -2
  INS promoter inh: /
  INS promoter inh cell count: /
  RGS16-Gao HTS: 144
  GALR2 agonist: 0.7
  HSV replic up: i
  HSV replic up primary fold: 0.96
smiles: Cc1cc(C)c2c(n1)sc1c(=O)n(CC(=O)c3ccccc3)cnc12
  PKD1 inh: /
  INS promoter inh: /
  INS promoter inh cell count: /
  RGS16-Gao HTS: 92
  GALR2 agonist: /
  HSV replic up: i
  HSV replic up primary fold: 0.81

(continued)
SMILES	PKD1 inh	INS promoter inh	INS promoter inh cell count	RGS16-Gao HTS	GALR2 agonist	HSV replic up	HSV replic up primary fold
Cc1cc(NC(=O)CSc2ccc3nnc(-c4cccnc4)n3n2)no1	4	/	/	101	-4.7	i	0.91
Cc1ccc(C2=Nc3ccccc3N(C(=O)c3ccccc3)C(C)C2)cc1 (stereo unspecified)	7	-75	192	104	0.7	i	0.92
O=C(Nc1ncc(Br)s1)C(Cc1ccccc1)n1cccc1 (stereo unspecified)	-2	/	/	88	-1.1	i	0.88
Cc1c(NS(C)(=O)=O)cccc1-c1nc2cccnc2s1	/	/	/	98	/	i	1.1
CCCNC(=O)Nc1cccc(C(=O)OC)c1	/	/	/	102	/	i	0.91
COc1ccc(C(C)=O)cc1COC(=O)CNC(=O)c1ccccc1F	-12	19	112	97	-1.9	i	0.94
CCn1c(SCC(=O)c2ccc(Cl)cc2)nnc1-c1cccs1	-1	27	133	94	-1.3	i	0.89
O=P(OC1CCS(=O)(=O)C1)(c1ccccc1)c1ccccc1 (stereo unspecified)	-1	/	/	100	-0.5	i	1
COc1ccc(NC(=O)c2ccc(-c3nn(C)c(=O)c4ccccc34)cc2)cc1	5	-64	79	115	/	i	0.92
Cc1sc2nc(C)n(/N=C/c3ccc(O)cc3O)c(=O)c2c1C	-8	-22	118	105	/	i	1.1
O=C(Nc1nccc(-c2cccs2)n1)c1cccs1	-12	/	/	101	0.0	/	/
O=C(CCN1C(=O)COc2ccccc21)NCCCN1CCN(c2ccccc2F)CC1	-5	-7	156	104	-1.9	i	1
O=C(O)CCc1ccc(-c2ccc(Br)cc2)n1Cc1ccco1	-7	41	29	96	0.7	i	0.95
Clc1ccc(OCc2nnc(-c3ccccc3Br)o2)cc1	-13	/	/	97	-0.7	i	1.1
C=CCNC(=O)/C(=C/c1ccc(Br)cc1)NC(=O)c1ccccc1OC	-9	-62	117	104	/	i	1
N/C(=N\OC(=O)N1CCOCC1)c1ccc(Cl)cc1	10	/	/	62	2.2	i	1.1
CCOc1ccc(NS(=O)(=O)c2ccc(NC(=S)NC(C)=O)cc2)cc1	10	-7	91	110	/	i	0.93
O=C(/C=C/c1cccc([N+](=O)[O-])c1)NCC1CCCO1 (stereo unspecified)	1	0	188	6	0.6	i	1
Cc1ccc2cccc(Oc3nnnn3-c3ccccc3)c2n1	-6	/	/	105	-0.8	i	0.86
C/C(=C(\C#N)C(=O)NCCN1CCOCC1)N(C)C	-2	/	/	104	-0.4	i	0.85
O=C(NCc1ccccc1)c1ccc2nc(N3CCOCC3)sc2c1	/	/	/	113	/	i	1.1
Cc1c(C(=O)Nc2ccccc2)oc2c1C(=O)CC(C)(C)C2	-4	5	62	105	-1.6	i	0.8
Cc1ncc([N+](=O)[O-])n1CC(=O)NC1CCCCC1	-3	-21	92	48	-0.2	i	0.97
Cc1ccc(S(=O)(=O)N(C(=O)c2ccncc2)c2ccc3oc4c(c3c2)CCCC4)cc1[N+](=O)[O-]	-6	-3	60	102	0.8	i	0.9
NS(=O)(=O)c1ccc(NC(=O)/C=C/c2cccs2)cc1	/	/	/	103	/	i	1
CCOC(=O)Cn1c(=N)n(CCOc2ccc3ccccc3c2)c2ccccc21	7	-11	169	108	-0.1	i	0.91
COc1ccc(-n2c(SCc3cn4c(C)cccc4n3)nc3ccccc3c2=O)cc1OC	-7	/	/	100	/	i	0.9
Cn1sc(NC(=O)c2cccc(Cl)c2)nc1=O	-19	/	/	105	-0.4	i	1
Fc1ccc(CNC(=S)NCc2ccc(F)cc2)cc1	/	/	/	105	/	i	0.94

Screening results deposited in PubChem BioAssay by several laboratories.
